# UCH37 DUB inh = human UCH37 deubiquitinating enzyme inhibition | Q9Y5K5 | purified proteasome/UCH37, Ub-AMC cleavage fluorescence | inhibition, % (test concentration not listed) | hit rate 0.33% among 330,000;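 active = mean of two replicates above 20%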;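 also: 0% = compound-free wells with enzyme and 100% = wells lacking proteasome; stock transfer was 100 nL into about 20 µL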
# Target sequence (Q9Y5K5 whole entry, looked up): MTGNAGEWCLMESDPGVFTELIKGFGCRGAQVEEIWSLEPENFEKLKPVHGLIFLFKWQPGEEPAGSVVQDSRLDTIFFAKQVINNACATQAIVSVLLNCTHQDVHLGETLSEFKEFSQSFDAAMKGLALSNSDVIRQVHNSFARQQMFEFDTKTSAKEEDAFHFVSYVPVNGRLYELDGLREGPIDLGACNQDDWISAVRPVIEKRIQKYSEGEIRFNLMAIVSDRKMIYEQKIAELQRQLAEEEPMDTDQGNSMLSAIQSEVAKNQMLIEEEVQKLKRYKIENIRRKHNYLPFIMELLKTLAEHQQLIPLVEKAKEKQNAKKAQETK
#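 Signal – fluorescence, ex 355 nm, em 460 nm · System – Proteasome-bound UCH37 · Input – 0.15 nM proteasome as dispensed · Timing – 30 min preincubation with enzyme, 25 min cleavage at room temperature · Read-out basis – percent inhibition of cleavage signal versus uninhibited and no-proteasome wells · Medium – Tris-HCl pH 7.4 with ATP-MgCl2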
# HNF4A DNA FP = change in binding of human HNF4 alpha to DNA. activity change, % at 10 µM. hit rate 0.3% among 360,000. P41235. HNF4a-FITC DNA binding, fluorescence polarization, 1 h; in the data active = activity change above about 30%, passing the limit was not always enough;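 also: controls were the assay level and a saturating level of protein; the project sought stronger binding though the title names inhibitors; some compounds called inactive have numbers as strong as hits; positive values seem to mean higher polarization but the record does not say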
# Target sequence (P41235 whole entry, looked up): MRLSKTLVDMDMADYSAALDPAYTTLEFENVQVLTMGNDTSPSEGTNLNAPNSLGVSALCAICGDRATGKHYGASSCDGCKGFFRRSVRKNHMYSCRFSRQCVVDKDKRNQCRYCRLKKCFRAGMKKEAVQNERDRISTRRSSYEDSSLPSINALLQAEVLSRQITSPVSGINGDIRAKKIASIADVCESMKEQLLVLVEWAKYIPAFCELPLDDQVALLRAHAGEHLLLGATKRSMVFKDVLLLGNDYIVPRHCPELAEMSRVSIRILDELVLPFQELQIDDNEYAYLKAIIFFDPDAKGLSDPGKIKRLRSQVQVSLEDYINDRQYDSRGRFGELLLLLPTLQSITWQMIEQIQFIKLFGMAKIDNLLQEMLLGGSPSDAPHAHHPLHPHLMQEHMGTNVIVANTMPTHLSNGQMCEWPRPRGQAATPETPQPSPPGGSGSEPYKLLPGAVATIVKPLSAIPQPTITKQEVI
# B2AR ag = agonists of human beta-2 adrenergic receptor inducing internalization. Am2.2-beta2AR cells, FAP receptor internalization, flow cytometry; reference of the scale not given here. response, % (test concentration not listed). hit rate 0.43% among 340,000. AID 504454;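 active = response above a set limit, near 3 SD of response in nonfluorescent compounds, cut at about 42% in these data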;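 also: stock transfer was 100 nL into about 11 µL; a reference agonist was the positive control; negative values mostly stem from fluorescent compounds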
# E coli growth = inhibitors of Escherichia coli growth | OD600, 23 h; hits give low values | OD600 absorbance (concentration not given with the values) | hit rate 0.21% among 330,000 | AID 1053175;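 active = OD600 absorbance below the run mean of sample wells minus 3.6 SD, in any replicate, cut at about 0.56 in these data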;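 also: stock transfer was 300 nL into about 60 µL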
# FGF22 binding = shifts melting point of recombinant human FGF22. recombinant FGF22 thermal shift, SYPRO orange fluorescence; percent of sucrose octasulfate shift, DMSO zero. Q9HCT0. hit rate 1.5% among 340,000. calls only at 9.99 µM;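 active = melting point raised past a set limit in the mean and every replicate; three in four hits are not shown here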
# Ecoli rRNA inh = inhibits bacterial ribosomal RNA function over humanized ribosomes | E. coli WT GFP vs humanized-ribosome RFP mutants, fluorescence, 24 h; hits give low values; DMSO median 0, no signal -100 | GFP signal change (wild-type ribosome), % (test concentration not listed) | hit rate 1.6% among 350,000;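 active = significant combined selectivity score with lowered wild-type GFP, culture density cut under 30%, mutant RFP and density less affected; inactive = any of these conditions unmet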; also: one replicate is shown; some compounds called inactive have numbers as strong as hits
# ALR inh = human ALR oxidase inhibition via reduced H2O2; P55789; purified ALR, DTT oxidation, H2O2 HRP-luminol luminescence; inhibition, % (test concentration not listed); hit rate 3.8% among 290,000; AID 485317;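 active = mean and each replicate at 75% or more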;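 also: stock transfer was 7.5 nL into about 7.5 µL; 0% = neutral wells and 100% = wells with inactivated enzyme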
# Target sequence (P55789 whole entry, looked up): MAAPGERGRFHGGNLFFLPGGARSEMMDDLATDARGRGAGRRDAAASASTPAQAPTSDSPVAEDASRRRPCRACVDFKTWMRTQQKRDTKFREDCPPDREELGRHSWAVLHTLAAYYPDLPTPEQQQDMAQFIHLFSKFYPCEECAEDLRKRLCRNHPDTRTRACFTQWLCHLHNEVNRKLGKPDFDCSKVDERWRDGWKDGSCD
# Ecoli rRNA inh OD600 = further read-out of Ecoli rRNA inh, marked with its call; OD600 change, %; measured here: OD600 growth;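 optical density of the mix in the first replicate; 0 = DMSO median and -100 = no signal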
# Ecoli rRNA inh RFP = also measured in Ecoli rRNA inh; calls as there; RFP signal change, %; measured here: RFP humanized mutant strains;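 first replicate; 0 = DMSO median and -100 = no signal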
# * hit, by the source's call; i = inactive; nt = no result given; & = joins results of further samples.
# Results follow in this order: UCH37 DUB inh	HNF4A DNA FP	B2AR ag	E coli growth	FGF22 binding	Ecoli rRNA inh	Ecoli rRNA inh OD600	Ecoli rRNA inh RFP	ALR inh
CC(C)OC(=O)CC1C(=O)NCCN1C(=O)COc1ccc(C(C)(C)C)cc1 (configuration not stated)
  2.3	-1.0	-4	0.66	i	-3	-20	-1.2	-2
CCn1c(=O)c2c(nc3n2CCCN3CCc2ccc(OC)c(OC)c2)n(C)c1=O
  4.4	-1.6	5	0.7	i	-1	1	-1.1	5
COc1cc(/C=N/NC(=O)c2ccc(-c3ccccc3)cc2)cc(OC)c1OC
  nt	4.4	5	nt	nt	nt	nt	nt	0
CCCN(CCC)c1nc(C)cc(C(C#N)c2nc3ccccc3o2)n1 (configuration not stated)
  -47	nt	nt	0.66	nt	nt	nt	nt	-3
O=C(CN1C(=O)NC2(CCCCC2)C1=O)Nc1ccc2c(c1)OCCCO2
  1.7	-4.0	2	0.68	i	3	4	-0.8	nt
CCOC(=O)Cn1nnc(-c2ccc(S(C)(=O)=O)cc2)n1
  6.6	-3.4	-5	0.68	nt	nt	nt	nt	-1
Cc1c(NC(=O)Cn2nc(C(F)(F)F)c3c2CCCC3)c(=O)n(-c2ccccc2)n1C
  1.8	5.5	-5	0.73	nt	nt	nt	nt	-4
O=C(NCC1OCCc2ccccc21)c1ccco1 (configuration not stated)
  0.2	1.4	4	0.73	nt	nt	nt	nt	-1
Cc1nc(SCC(=O)Nc2ccc(F)cc2)c(C#N)c(C)c1CC(=O)c1ccc(Br)cc1
  -0.3	1.3	4	0.73	nt	nt	nt	nt	-1
CN1C(=O)N(C)C2(c3ccccc3)N(C(C)(C)C)C(=O)NC12c1ccccc1 (configuration not stated)
  -1.5	-2.9	6	0.68	i	-9	2	2.7	-3
COc1cccc(CNc2nc(NCc3cccs3)nc3ccsc23)c1
  nt	1.2	nt	nt	i	-49	-69	-17	nt
CN1CCN(c2cc(=O)n(-c3ccc(Cl)cc3)c(=O)[nH]2)CC1
  3.5	1.3	2	0.71	i	5	10	0.7	23
Cn1c(=O)c2ccccc2n(CC(=O)NC2CCCC2)c1=O
  1.5	1.5	-2	0.72	i	1	4	2.1	nt
CCOC(=O)c1c(CSc2ccccc2)n(C)c2ccc(O)cc12
  1.9	2.8	-3	0.65	i	-5	2	5.0	-6
Cc1nn(C)c(C(=O)Nc2cccc(CN3CCOCC3)c2)c1Br
  5.1	2.6	-9	0.7	i	2	0	-3.1	nt

# Results follow in this order: UCH37 DUB inh	HNF4A DNA FP	B2AR ag	E coli growth	FGF22 binding	Ecoli rRNA inh	Ecoli rRNA inh OD600	Ecoli rRNA inh RFP	ALR inh
O=c1oc2ccccc2cc1-c1csc(Cc2nc(-c3ccc(Br)cc3)cs2)n1
  -124	-4.2	7	0.78	nt	nt	nt	nt	0
COc1ccc(OC)c(C(C)NC(=S)Nc2ccc(S(=O)(=O)Nc3ncccn3)cc2)c1 (configuration not stated)
  3.7	2.2	2	0.73	i	0	-7	-1.3	-9
CC(Sc1ncc(C#N)c(N)n1)C(=O)Nc1ccccc1 (configuration not stated)
  0.1	-0.5	1	0.72	nt	nt	nt	nt	-1
O=C(NNC(=O)C1C2CCC(C2)C1C(=O)O)c1cccc(Cl)c1 (configuration not stated)
  1.0	-2.2	-6	0.74	i	-4	-3	-1.2	3
Cc1noc(C)c1CCC(=O)Nc1c(C(C)C)cccc1C(C)C
  1.3	-1.6	-1	0.6	i	2	8	2.6	nt
COc1ccc(NC2=NC(C)(CO)CS2)cc1 (configuration not stated)
  1.5	-4.5	-8	0.63	i	7	5	-1.1	3
Cc1ccc(Nc2nnc(SCc3cc(=O)n4ccsc4n3)s2)c(C)c1
  -1.1	-1.9	-6	0.7	nt	nt	nt	nt	nt
O=C(COC(=O)c1ccc([N+](=O)[O-])o1)NCc1ccc(F)cc1
  25*	-2.4	-4	0.6	i	0	1	-2.7	-7
COc1cccc(NC(=O)C2c3cc(OC)c(OC)cc3C(=O)N(C)C2c2cccnc2)c1 (configuration not stated)
  2.4	-19	1	0.69	nt	nt	nt	nt	-11
CCC(=O)N1CCc2cc(S(=O)(=O)CCC(=O)NCCC3=CCCCC3)ccc21
  3.5	-0.6	-19	0.68	nt	nt	nt	nt	4
CCNC(=O)c1cccc(NC(=O)CN2C(=O)NC3(CCCCC3)C2=O)c1
  2.3	1.1	-2	0.65	i	10	17	0.2	nt
O=C(c1ccco1)N1CCN(c2ccc([N+](=O)[O-])cn2)CC1
  14	6.4	10	0.71	i	36	21	14	nt
O=C(NCc1ccncc1)[C@@H]1CCCN1C(=O)[C@@H]1CCCN1C(=O)c1cccc2ccccc12
  nt	-3.6	nt	nt	i	4	3	-1.2	nt
O=C(c1ccc2c(=O)n3c(nc2c1)CCCCC3)N1CCc2ccccc21
  2.3	0.7	4	0.67	i	-6	-3	0.6	-14
CCc1ccc(OCCCC(=O)NCc2ccccc2)cc1
  -1.3	0.9	-1	0.69	nt	nt	nt	nt	-5

# Results follow in this order: UCH37 DUB inh	HNF4A DNA FP	B2AR ag	E coli growth	FGF22 binding	Ecoli rRNA inh	Ecoli rRNA inh OD600	Ecoli rRNA inh RFP	ALR inh
Cc1ccc(-n2c(SCC(=O)Nc3cc(C)on3)nc3c([nH]c4ccccc43)c2=O)cc1
  2.2	1.8	1	0.69	i	9	15	2.4	-8
O=C(NCC(c1cccs1)N1CCOCC1)c1cc2ccccc2oc1=O (configuration not stated)
  -0.7	-3.2	-16	0.7	i	5	-1	4.7	nt
Cc1ccc(C(=O)CSc2nnc(-c3ccc4[nH]c(C)c(C)c4c3)o2)cc1C
  2.4	-1.3	-1	0.72	nt	nt	nt	nt	-14
O=C(CNCc1cccs1)Nc1ccc(S(=O)(=O)N2CCCCC2)cc1
  4.0	2.5	13	0.67	i	-1	-2	0.2	-6
Nc1nnc(CCC2CCCCC2)s1
  4.6	2.6	-1	0.65	nt	nt	nt	nt	1
COc1ccc(N2C(=O)C3ON(C4SC(=S)N(C)C4(C)C)C(c4ccc(Cl)cc4)C3C2=O)cc1 (configuration not stated)
  nt	-0.1	5	nt	nt	nt	nt	nt	-4
Cc1ccc(-n2nnnc2C(Cl)(Cl)c2nnnn2-c2ccc(C)cc2)cc1
  1.2	-0.4	17	0.61	i	22	7	1.6	10
COc1cc(C#N)c(NC(=S)N2CCOCC2)cc1OC
  -1.7	nt	nt	0.73	nt	nt	nt	nt	-141
O=C(CCc1nnc(CCCc2ccccc2)o1)NCCc1ccco1
  1.1	-2.1	-2	0.69	i	4	-2	4.7	9
O=C(O)C1C2CC3C(OC(=O)C31)C2Cl (configuration not stated)
  5.4	0.0	-2	0.69	nt	nt	nt	nt	-7
Cc1ccc(CNC(=O)COC(=O)CCOc2ccc(C)cc2)cc1
  0.9	0.9	-10	0.68	nt	10	4	1.9	4
CC/C(=N\N=C(/CC)c1ccccc1N)c1ccccc1N
  nt	6.1	1	nt	i	14	13	0.7	-14
Cc1cc(C)c2c(N)c(C(=O)N3CCN(c4ncccn4)CC3)sc2n1
  -65	-3.6	-2	0.77	nt	nt	nt	nt	-1
O=C(O)CCCC(=O)N(Cc1ccccc1)Cc1ccccc1
  -2.1	2.8	0	0.74	nt	nt	nt	nt	-11
COc1ccccc1NS(=O)(=O)c1ccc(C(=O)N2CCN(c3ccccc3O)CC2)cc1
  4.4	-0.7	8	0.7	i	-1	-3	0.0	30

# Results follow in this order: UCH37 DUB inh	HNF4A DNA FP	B2AR ag	E coli growth	FGF22 binding	Ecoli rRNA inh	Ecoli rRNA inh OD600	Ecoli rRNA inh RFP	ALR inh
CC(=O)NC(CCS(C)(=O)=O)C(=O)Nc1cccc2ccccc12 (configuration not stated)
  0.5	-0.8	3	0.71	i	3	7	-0.8	-26
CC1Cc2nc(SCC(=O)Nc3nc4ccccc4s3)n(C)c(=O)c2S1 (configuration not stated)
  8.1	-0.8	4	0.71	i	-18	-40	-0.8	99*
COc1ccc(-c2c(C)oc3c(CN4CCCC(C)C4)c(O)ccc3c2=O)cc1OC (configuration not stated)
  -182	2.3	-3	0.66	i	9	14	-1.6	nt
COc1ccccc1CN1C[C@@H]2C[C@@H](c3[nH]c4c(C)cccc4c3C)N3CCC[C@@]23C1=O
  -4.7	0.8	-2	0.68	i	-1	-1	0.7	4
Cc1ccc(N=C2NC(=O)/C(=C/C=C/c3ccco3)S2)cc1C
  7.7	2.4	-5	0.74	nt	nt	nt	nt	89*
COc1ccc(N2CCN(C(CNC(=O)C(=O)NCCCO)c3ccco3)CC2)cc1 (configuration not stated)
  3.9	2.2	2	0.72	i	3	13	-1.1	86*
Cn1nc(-c2ccc(C(=O)N3CCN(Cc4ccccc4)CC3)cc2)c2ccccc2c1=O
  6.1	0.0	13	0.73	nt	-5	-10	-2.5	-35
COc1ccccc1N1CCN(C(=O)CC(NC(=O)c2ccccc2Cl)c2ccccc2)CC1 (configuration not stated)
  1.1	-0.2	-2	0.68	i	-6	-9	-2.6	nt
Cc1ccc2c(c1)[C@H]1[C@H](CO2)[C@H](c2ccccc2)[C@]2(C)C(=O)Nc3ccc(Cl)cc3C(=O)N12
  2.6	-1.1	0	nt	i	10	24	4.8	4
COc1ccc(CNC(=O)c2ccc(CNc3c(NC4CCCCC4)c(=O)c3=O)cc2)cc1
  6.4	-2.0	13	0.76	i	4	20	5.0	nt
COc1cc2c(cc1OC)CN(C(=O)C1CCCN(C(=O)c3ccc(Cl)cc3)C1)CC2 (configuration not stated)
  -9.2	0.7	6	0.66	i	-15	-12	-3.9	nt
CCOC(=O)C1(C)NC(c2ccc(N(C)C)cc2)C2C(=O)N(CC)C(=O)C21 (configuration not stated)
  -1.0	-0.1	1	0.7	nt	nt	nt	nt	51
Cc1csc(SCCn2c(N3CCN(c4ccccc4)CC3)nc3c2c(=O)[nH]c(=O)n3C)n1
  3.2	0.1	-4	0.66	nt	nt	nt	nt	98*
CCn1c(COc2cccc3cccnc23)nnc1SC(F)F
  -8.0	0.7	2	0.67	i	-4	4	3.4	2
CCCCNc1c(-c2ccc(SC3CCCCC3)c(OC)c2)nc2ccc(Cl)cn12
  -65	5.9	-6	0.71	i	-15	-27	-4.4	-13

# Results follow in this order: UCH37 DUB inh	HNF4A DNA FP	B2AR ag	E coli growth	FGF22 binding	Ecoli rRNA inh	Ecoli rRNA inh OD600	Ecoli rRNA inh RFP	ALR inh
C[C@@H]1CN([C@H](C)CO)C(=O)c2cc(Br)cnc2O[C@@H]1CN(C)C(=O)Nc1ccccc1
  nt	3.0	nt	nt	i	0&2	3&8	-0.5&1.1	nt
COc1ccc(S(=O)(=O)N2c3ccccc3OCC2C)cc1 (configuration not stated)
  -0.3	1.3	19	0.64	nt	-41	-58	-12	-12
COC(=O)c1ccc(CSCc2ccc(C(=O)OC)o2)o1
  7.6	2.6	14	0.68	i	0	-6	0.6	17
CC1=C(C(=O)N(C)C)CC(CC(=O)NC(c2ccccc2)c2ccccc2)C(=O)N1Cc1ccc(C(C)(C)C)cc1 (configuration not stated)
  nt	-6.5	nt	nt	i	2	1	1.5	nt
COc1c(C)cc(C(=O)C2CCCN(C(=O)c3snnc3C)C2)cc1C (configuration not stated)
  1.3	-1.1	-12	0.69	i	6	0	-4.4	-1
CCOc1cc(OCC)cc(C(=O)N2CCC[C@H]2C(=O)N2CCC[C@H]2C(=O)NCc2cccc(OC)c2)c1
  nt	3.2	nt	nt	i	3	0	2.8	nt
COc1ccc(CC(=O)NNc2ncnc3c2cnn3-c2ccc(C)cc2)cc1OC
  -0.4	1.8	-5	0.68	i	5	11	0.5	13
COc1ccc(OC)c(C(=O)COC(=O)COc2ccccc2F)c1
  2.2	1.5	-9	0.7	i	7	0	-1.2	nt
CCOC(=O)c1c(NC(=O)CN2CCN(c3ccc(Cl)cc3)CC2)sc(C)c1C
  -1.7	1.6	1	0.73	nt	nt	nt	nt	-5

# Only part of the results is shown; the hit share may differ from the screen's.
